# T cruzi repl: blocks replication of Trypanosoma cruzi; T. cruzi beta-gal in NIH3T3, luminescence, 90 h; inhibition, % (no concentration beside the values); 300,000 tested, 1.4% active; AID 1885;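 active = mean inhibition across valid replicates above about 55%, limit read from the data; inconclusive = mean below that limit but half or more replicates reach it; inactive = mean below it, under half of replicates reach it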;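 note: signal also drops with host cell toxicity which is not excluded here; 0% = plate median of DMSO wells and 100% = zero luminescence signal; higher percent means less beta-gal luminescence so fewer parasites; stock transfer was 50 nL into about 50 µL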
# MLL AF4-AF9 inh: blocks AF4 peptide binding to human AF9; P42568; AlphaScreen, biotin-AF4 peptide binding to FLAG-AF9; inhibition, % at 10 µM; 350,000 tested, 0.47% active; AID 651704;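 active = every replicate reaching a set inhibition limit, whatever the replicate mean, cut at about 25% in these data; inconclusive = mean inhibition reaches that limit but some replicates miss it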;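 note: 0% = plate neutral control median and 100% = total signal loss; the record names both 10 and 1 µM as test concentration; the first replicate is given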
# Target sequence (P42568 whole entry, looked up): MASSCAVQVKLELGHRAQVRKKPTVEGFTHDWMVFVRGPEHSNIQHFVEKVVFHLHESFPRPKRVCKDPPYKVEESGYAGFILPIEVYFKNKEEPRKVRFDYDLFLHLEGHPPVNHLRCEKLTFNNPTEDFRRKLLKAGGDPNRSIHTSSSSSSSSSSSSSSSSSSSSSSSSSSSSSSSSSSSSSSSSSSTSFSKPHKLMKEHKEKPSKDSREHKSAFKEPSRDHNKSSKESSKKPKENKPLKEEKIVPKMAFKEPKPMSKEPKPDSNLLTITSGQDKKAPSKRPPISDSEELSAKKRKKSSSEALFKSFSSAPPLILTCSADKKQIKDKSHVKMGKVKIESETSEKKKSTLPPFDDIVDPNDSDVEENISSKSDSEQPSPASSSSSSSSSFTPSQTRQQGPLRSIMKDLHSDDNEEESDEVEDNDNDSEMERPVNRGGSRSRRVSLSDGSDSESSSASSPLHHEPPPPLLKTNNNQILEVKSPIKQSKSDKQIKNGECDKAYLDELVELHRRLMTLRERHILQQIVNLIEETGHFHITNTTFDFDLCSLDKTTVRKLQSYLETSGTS
# Beta cell apopt: blocks beta cell apoptosis; INS-1E cytokine-induced death, ATP luminescence, 48 h; percent of positive-control rescue, neutral wells zero; protection from apoptosis, % (concentration not given with the values); 300,000 tested, 0.8% active;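 active = all replicates at 75% or more, or half of them and the mean; inconclusive = half reach 75% but not the mean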;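 note: 0% = cytokine-treated negative control wells and 100% = positive control rescue; higher means more ATP so stronger rescue from cytokine killing; wells of about 40 µL received 100 nL stock; the first replicate is given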
# Bfl-1 A1 inh: inhibitors of the anti-apoptotic protein A1, read as caspase activation | MEF A1-2A-BIM cells, Caspase-Glo 3/7 luminescence, 3 h; percent of clofoctol response, vehicle zero | caspase activation, % (no concentration beside the values) | 330,000 tested, 0.066% active;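 active = over half of replicate activation scores above 10%, or exactly half above 10 with the replicate mean above 10; inconclusive = replicate mean below 10 yet half the replicates above 10; inactive = over half of replicates below 10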;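 note: wells of about 30 µL received 50 nL stock; many hits fall short of the cut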
# Calb FLC: C. albicans growth modulation with fluconazole; AID 1979; growth inhibition, % (concentration not given with the values); 300,000 tested, 0.57% active; C. albicans CaCi-2 (fluconazole-resistant clinical isolate) + fluconazole, Alamar Blue growth, 48 h;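 active = most replicates above 75%; inconclusive = exactly half above 75%; inactive = most below 75%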;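 note: all wells also contain fluconazole at 8 µg/ml as a sub-toxic cotreatment; 0% = median of DMSO wells and 100% = median of geldanamycin control wells; wells of about 8 µL received 7.5 nL stock; the first replicate is given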
# RanGTP-Impb inh: inhibitors of RanGTP-importin-beta interaction, primary screen, biochemical, FRET, CFP-Ran, YFP-importin-beta, homogeneous; cell-free CFP-Ran/YFP-importin-beta FRET ratio; inhibition, % (concentration not given with the values); 300,000 tested, 1.1% active; AID 2216;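 active = most replicates above 15%; inconclusive = exactly half above 15%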;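 note: 0% = DMSO wells and 100% = Ran loaded with GDP instead of GTP; wells of about 40 µL received 100 nL stock; the first replicate is given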
# rRNA inh HTS: selective bacterial rRNA inhibition in E. coli. E. coli WT GFP vs humanized-ribosome RFP mutants, fluorescence, 24 h; hits give low values; DMSO median 0, no signal -100. GFP signal change (wild-type ribosome), % (concentration not given with the values). 350,000 tested, 1.6% active. AID 720706;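 active = significant combined selectivity score with lowered wild-type GFP, culture density cut under 30%, mutant RFP and density less affected; inactive = any of these conditions unmet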; note: one replicate is shown; some compounds called inactive have numbers as strong as hits
# Vif TR-FRET: HIV-1 Vif–A3G interaction blockers – biochemical, TR-FRET, GST-Vif 1-94, biotin-A3G peptide, dose response retest, primary screen (AID 1117319); TR-FRET GST-Vif / biotin-A3G peptide binding; higher % means a stronger effect; test concentration not given here; strong numbers were not always called active; one-dose inhibition, %; IC50 in µM for titrated hits; 260,000 tested, 0.57% active;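 active = above the screen mean plus three standard deviations and confirmed in dose response; inconclusive = results disagree or hit not tested in dose response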;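 note: Vif residues 1-94 fused to GST binding biotinylated APOBEC3G peptide 110-148; 0% = full assay without inhibitor and 100% = GST in place of GST-Vif; retest series ran down from 100 µM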
# rRNA inh HTS OD600: further read-out of rRNA inh HTS, marked with its call; OD600 change, %; measured here: OD600 growth;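 optical density of the mix in the first replicate; 0 = DMSO median and -100 = no signal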
# rRNA inh HTS RFP: also measured in rRNA inh HTS; calls as there; RFP signal change, %; measured here: RFP humanized mutant strains;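 first replicate; 0 = DMSO median and -100 = no signal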
# Active calls of the source: *; ? = inconclusive; . = no result given; & = joins results of further samples. Not all compounds are listed. The share of hits here may be higher or lower than overall.
SMILES,T cruzi repl,MLL AF4-AF9 inh,Beta cell apopt,Bfl-1 A1 inh,Calb FLC,RanGTP-Impb inh,rRNA inh HTS,rRNA inh HTS OD600,rRNA inh HTS RFP,Vif TR-FRET
COc1ccc(CCC(C)Nc2cccc(F)c2)cc1 (centres undefined),7,.,0,-0.1,-31,7.9,.,.,.,2%
Cc1cc(N/C(=N/S(=O)(=O)c2ccc(F)cc2)c2ccccc2)n(-c2ccccc2)n1,-1,0.8,3,0.7,-19,-0.7,10,14,1.2,24%
CNC(=S)NN(C)c1nc(C)cc(C)n1,-6,.,-8,0.1,-7,?,.,.,.,-1%
Cc1ccc(CNC(=O)C2CCCCC2C(=O)O)cc1 (centres undefined),-3,.,-6,-0.7,-15,-2.9,.,.,.,1%
O=C(c1ccc(CS(=O)(=O)c2ccc(Br)cc2)o1)N1CCN(C2CCCCC2)CC1,51,-9.5,.,-0.8,-3,-2.1,0,5,-11,?
COc1cc(OC)c(OC)cc1/C=C1\CCC(C2CCCC2)C1=O (centres undefined),-3,18,3,-0.1,6,5.7,-9,-11,2.9,.
CCN(CC(=O)Nc1ccc(S(=O)(=O)N2CCCCC2)cc1)Cc1ccccc1,5,4.3,9,-0.4,-8,1.5,-6,-20,3.0,-3%
Cc1ncn2cc(-c3ccc(Cl)cc3Cl)[nH]c(=O)c12,6,-2.3,4,-0.4,11,3.2,-8,-4,1.5,?
O=C(Nc1cccc(S(=O)(=O)N2CCCCC2)c1)C1CCCN1S(=O)(=O)c1ccccc1F (centres undefined),.,-5.3,-1,0.5,.,.,-4,-7,1.2,?
CCc1c(C(=O)Nc2ccc(S(=O)(=O)N3CCOCC3)cc2)csc1C,-28,.,5,-0.7,-9,-0.2,.,.,.,19%
CCc1nc2ccccc2c(NC(=O)CN2CCC(C)CC2)c1C,2,.,-5,0.3,4,-2.4,.,.,.,6%
O=C(NCCCn1ccnc1)c1ccc(C(F)(F)F)cc1,-13,8.6,-2,-0.2,-7,3.1,3,5,-1.0,0%
Cc1nn(C)c(C)c1CNC(=O)Nc1ccc2c(c1)OCO2,-7,-1.5,-6,-0.3,-7,6.2,7,10,-1.0,13%
COC(=O)C1(c2ccccc2)NC(c2cccs2)C2C(=O)N(c3ccccc3)C(=O)C21 (centres undefined),12,.,0,0.0,1,-1.1,.,.,.,13%
Cc1cc(CN(C)C(=O)C2CCC(=O)N(CCc3cccc(F)c3)C2)on1 (centres undefined),3,-3.4,-4,-0.9,0,3.2,13,14,0.9,1%
CC(=O)Nc1ccc2nc(C3CC3)n(Cc3ccc(Cl)cc3)c(=O)c2c1,27,-2.8,-4,-2.6,9,.,6,3,-2.1,.
CCOC(=O)c1[nH]c2ccccc2c1NC(=O)CC(C)C,6,0.2,-2,0.3,2,-2.4,-1,9,-2.8,.
COc1ccc(C(=O)N2CCC(n3nccc3NC(=O)C3CCOC3)CC2)cc1 (centres undefined),-5,-0.4,-3,-0.3,-5,1.5,13,10,4.7,-2%
O=C(N/N=C/c1cccs1)C(=O)N1CCCC1,-5,-1.3,-5,0.1,5,6.2,14,20,1.9,2%
CCC(C(=O)N1CCN(C(=O)c2ccco2)CC1)n1sc2ccccc2c1=O (centres undefined),1,-12,-2,-0.2,-17,-6.2,-1,-7,0.2,.
O=C(CCNC(=O)c1ccc(Cl)cc1)Nc1c(F)c(F)cc(F)c1F,-7,.,2,1.0,-8,2.6,.,.,.,.
O=C(CSc1ccncc1)Nc1ccc(S(=O)(=O)Nc2nccs2)cc1,-2,-1.3,-4,0.4,2,4.3,5,-1,1.8,28%
COc1ccccc1Nc1nc(-c2ccc3c(c2)NC(=O)CO3)cs1,11,1.4,43,-0.2,20,1.5,-5,-1,-1.1,-4%
C1CNC(C23CC4CC(CC(C4)C2)C3)=N1,-3,-1.6,-5,0.3,12,4.4,16,10,-1.9,.
Nc1nnc(-c2ccc(Cl)cc2)s1,-9,.,.,-0.7,4,?,.,.,.,20%
O=C1NC(Cc2c[nH]c3ccccc23)C(=O)N1CCOc1ccccc1 (centres undefined),5,.,2,-1.6,4,-2.7,.,.,.,1%
O=S(=O)(Nc1nc2ccccc2nc1-[n+]1cccc(N=C([O-])c2ccc(Cl)cc2)c1)c1ccccc1,37,9.1,-19,0.1,6,-0.1,112,7,21,-25%
CC1(C)Cc2c(sc(N)c2C#N)C(C)(C)N1,-7,-5.5,-6,0.2,-10,2.5,3,7,0.2,.
O=C(O)c1cc([N+](=O)[O-])c(N2CCCC2)c([N+](=O)[O-])c1,8,.,.,0.4,0,1.3,.,.,.,.
Cc1cc(-c2nnc(CCC(=O)N(C)Cc3cccc4ccccc34)o2)no1,-2,-2.4,5,0.8,-6,?,-6,-7,2.3,.
O=C(CNC(=O)c1ccccc1F)N/N=C/c1cc(Br)ccc1OC(=O)/C=C/c1ccco1,34,.,57,0.7,36,-0.3,.,.,.,16%
Cc1ccc(NC(=O)CN2CCN(C(=O)c3ccco3)CC2)cc1,-2,-0.5,0,0.0,-4,0.7,7,10,-1.6,.
CC(/C=N/NC(=O)c1ccncc1)=C\c1ccccc1,-3,3.3,-4,-0.8,-13,-1.8,4,9,-3.6,-1%
CCc1nnc(N/N=C/c2ccccc2Cl)n1N,3,.,1,-0.4,-10,0.7,.,.,.,1%
O=C(COC(=O)[C@H](Cc1ccccc1)NC(=O)c1cccs1)Nc1ccccc1C(F)(F)F,-15,.,-4,-0.8,3,5.1,.,.,.,.
CCOC(=O)c1cnc2c(c(C3CC3)nn2C)c1N1CCOCC1,-4,1.0,-2,0.0,-9,-0.1,-18,-14,0.7,14%
CCCNC(=O)COc1coc(CN2CCN(c3ccccc3)CC2)cc1=O,-11,1.7,.,-1.2,3,-0.5,1,5,0.1,.
Cc1nc2nc(CC(=O)O)[nH]n2c(=O)c1[N+](=O)[O-],-21,19,0,0.0,-2,2.0,11,6,-1.6,?
Cc1ccc(N2C(=O)Nc3ccccc3C2(O)C(=O)NCCCOC(C)C)cc1C (centres undefined),0,-0.8,-2,1.8,-9,5.2,7,10,-0.8,-1%
COP(=O)(OC)c1nc(-c2ccccc2)oc1N1CCOCC1,9,.,-11,0.4,-7,0.0,.,.,.,.

# Ordered by length of the SMILES (smallest number first): some entries from above.
SMILES,T cruzi repl,MLL AF4-AF9 inh,Beta cell apopt,Bfl-1 A1 inh,Calb FLC,RanGTP-Impb inh,rRNA inh HTS,rRNA inh HTS OD600,rRNA inh HTS RFP,Vif TR-FRET
COP(=O)(OC)c1nc(-c2ccccc2)oc1N1CCOCC1,9,.,-11,0.4,-7,0.0,.,.,.,.
Cc1ccc(NC(=O)CN2CCN(C(=O)c3ccco3)CC2)cc1,-2,-0.5,0,0.0,-4,0.7,7,10,-1.6,.
O=C1NC(Cc2c[nH]c3ccccc23)C(=O)N1CCOc1ccccc1 (centres undefined),5,.,2,-1.6,4,-2.7,.,.,.,1%
O=C(CNC(=O)c1ccccc1F)N/N=C/c1cc(Br)ccc1OC(=O)/C=C/c1ccco1,34,.,57,0.7,36,-0.3,.,.,.,16%
O=S(=O)(Nc1nc2ccccc2nc1-[n+]1cccc(N=C([O-])c2ccc(Cl)cc2)c1)c1ccccc1,37,9.1,-19,0.1,6,-0.1,112,7,21,-25%

# (further entries)
SMILES,T cruzi repl,MLL AF4-AF9 inh,Beta cell apopt,Bfl-1 A1 inh,Calb FLC,RanGTP-Impb inh,rRNA inh HTS,rRNA inh HTS OD600,rRNA inh HTS RFP,Vif TR-FRET
CCOC(=O)C(=O)N(Nc1ccc(C)cc1)c1ccc(C)cc1,-13,-3.6,-2,0.8,14,2.3,-8,-20,1.2,7%
CC1=C(C(=O)OCC2CCCO2)C(c2ccsc2)C2=C(CCCC2=O)N1 (centres undefined),-6,-0.1,4,-0.1,1,?,2,-2,-1.7,-3%
CCc1nc(Cl)c(C#N)c2c1CCCC2,-15,-2.0,-2,0.2,?,-0.3,-1,-2,-0.4,.
O=C(O)c1ccc(Cl)c(S(=O)(=O)Nc2ccc3cn[nH]c3c2)c1,5,-0.3,-4,0.5,9,1.2,4,5,-1.4,22%
CN(C)S(=O)(=O)c1cccc(-c2nn(-c3ccccc3)cc2/C=C2\SC(=S)NC2=O)c1,.,4.3,38,0.7,.,.,-1,-5,8.0,.
CCOc1cc2[nH]c(=S)n(Cc3ccc(C(=O)NCCN(CC)CC)cc3)c(=O)c2cc1OCC,1,-0.7,.,-0.4,20,-2.1,14,1,19,-5%
Cc1cc(C)c2c(CC(=O)Nc3nccs3)coc2c1,-16,.,0,0.3,9,5.5,.,.,.,-1%
Nc1cc(N)nc(SCCOc2ccccc2F)n1,-8,.,-4,-3.8,35,9.0,.,.,.,18%
Cc1ccc(S(=O)(=O)NC2CCCC2)cc1C(N)=O,-4,-0.4,1,0.5,8,-0.8,8,7,-1.5,-4%
CC1CN(c2ccc(Cl)cc2[N+](=O)[O-])CCN1S(C)(=O)=O (centres undefined),-8,4.1,-1,0.6,-2,-1.2,-24,-31,-8.2,-2%
O=C(CN(C(=O)c1csnn1)c1cccc2c1CCCC2)NCc1ccc(F)cc1,1,1.8,1,0.9,-12,-1.2,-3,-1,4.8,.
Cc1cc(C)cc(NC(=O)Cc2ccc(-n3cccc3)cc2)c1,29,.,-3,-0.2,6,-1.9,.,.,.,.
Cc1oc(-c2cccs2)nc1CN1CCC(CO)(CCOc2ccccc2)CC1,17,-26,0,-0.5,-2,4.2,5,-5,0.1,9%
C=CCN1C(=O)CSC1=Nc1ccc(NC(C)=O)cc1,-11,-1.5,.,-0.6,1,1.7,20,6,3.5,3%
CC(C)(C)[C@@H]1C=C(C(=O)NC2CC2)O[C@H](OCc2ccc(CO)cc2)C1,-15,3.8&-2.7,0,1.2,-4,0.0,-11,-12,13,-10%
OC(CCc1ccncc1)c1ccccc1 (centres undefined),-12,0.6,1,-0.5,-3,-1.6,5,8,3.7,.
CN(C)S(=O)(=O)c1ccc(S(=O)(=O)N2CCCC(C(=O)NC3CCCC3)C2)cc1 (centres undefined),6,-3.5,3,-0.7,0,-1.8,-3,0,0.1,.
O=c1c2ccccc2c(/C=N/NS(=O)(=O)c2ccccc2)c(O)n1-c1ccccn1,-16,-1.9,-7,0.3,?,-2.1,16,4,4.0,.
Cc1ccnc(NS(=O)(=O)c2ccc(NC(=O)c3ccc(S(=O)(=O)N4CC(C)OC(C)C4)cc3)cc2)n1 (centres undefined),-2,.,.,0.1,-11,-0.6,.,.,.,20%

# Screens (PubChem BioAssay)
